CDC25B CDK2 inh: human CDC25B-CDK2/CyclinA binding inhibition | z-score (no concentration beside the values) | HTRF CDC25B-CDK2/CyclinA binding, anti-His/anti-Flag; hits give high values | AID 1259370 | P30305+P24941 | actives 0.72% (n = 94,000);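 note: score is relative to mean and SD of negative controls; strong numbers were not always called active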
HIV TAR-Tat: HIV-1 TAR-Tat binding disruption; z-score (no concentration beside the values); HIV-1 TAR RNA, Tat peptide displacement FRET; hits give high values; actives 0.6% (n = 100,000);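 note: score is relative to mean and SD of negative controls; some compounds called inactive have numbers as strong as hits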
An asterisk follows results filed as active; . = not tested or not shown.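 Rule for the calls: active = z-score from 3 up in half or more of its runs; inactive = the rest.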

SMILES | CDC25B CDK2 inh | HIV TAR-Tat
COc1ccc(NC(=O)c2sc(-c3ccc4c(c3)CCO4)nc2C)cc1 | -2.29 | .
Cc1nc2n(CC(=O)c3ccc(Br)cc3)c3ccccc3n2n1 | -1.38 | .
N#Cc1cc2c(nc1SCC(=O)Nc1nc3ccccc3s1)CCC2 | -3.05 | .
CCCn1c(C2CC(=O)N(Cc3cccs3)C2)nc2ccccc21 (stereo not drawn) | 1.41 | 0.75
Cn1cccc1-c1cc2n(n1)CCCN2C(=O)CCC(=O)N1CCN(c2ccccc2)CC1 | . | -0.61
CC(C)CCNS(=O)(=O)c1ccc2c(c1)NC(=O)CCS2 | . | 0.75
N=C1C(c2nc3ccccc3s2)=C(O)CN1c1ccc(Br)cc1 | -2.44 | 1.57
CCCc1cc(NCCN2CCOCC2)n2c(nc3ccccc32)c1C#N | -1.66 | .
S=C(N/N=C/c1cccs1)N/N=C/c1cccs1 | -0.86 | .
O=S(=O)(Nc1cccc(Br)c1)c1ccc(-n2cccn2)cc1 | . | 0.95
Cc1sc2ncn(CC(=O)NCCN3CCOCC3)c(=O)c2c1S(=O)(=O)N1CCCCC1 | -0.43 | 3.15
O=C(COCc1cc(-c2ccco2)on1)Nc1cccnc1 | . | 0.75
O=S1(=O)CC(N2CCCCC2)c2ccccc21 (stereo not drawn) | -2.44 | .
CCN1C(=O)Cc2cc(NS(=O)(=O)CC)ccc21 | . | 1.91
Cc1ccsc1CCNC(=O)CCc1nnc2ccc(NCc3ccc4c(c3)OCO4)nn12 | . | 1.27
CC(=O)c1ccc(OC(=O)c2ccco2)cc1 | 2.99 | .
N#CCCN(Cc1ccccc1)C(=O)Nc1ccccc1 | -1.38 | .
CC(C)c1nn2c(=O)cc(CSCC(=O)Nc3ccc(Cl)cc3)nc2s1 | . | -0.35
O=C(NCc1ccc(F)cc1)c1nn2c(c1Cl)NC(c1ccco1)CC2C(F)(F)F (stereo not drawn) | -1.61 | -0.19
Nc1nc2ccccc2n1Cc1ccccc1Cl | -1.58 | .
CCN(CC)CCCNC(=O)c1oc2ccc3c(c2c1C)C(=O)CC1(CCCCC1)O3 | -0.37 | 0.17
CC(=O)N1N=C(c2ccc3ccccc3c2)OC1c1ccncc1 (stereo not drawn) | . | 1.98
O=C(NCC(c1cccs1)S(=O)(=O)c1cccs1)C1CCCCC1 (stereo not drawn) | . | -0.26
CCOC(=O)N1CCN(C(=O)Cn2c(=O)sc3ccccc32)CC1 | -1.65 | -1.95
CCOC(=O)c1c(C)oc2c1C1=NC(CC)CN1C=N2 (stereo not drawn) | -1.72 | 0.43
CCN1CCN(CCCNC(=O)Cn2cc3c(n2)CCCC3)CC1 | -1.56 | .
OCCN(Cc1ccccc1)c1ncnc2onc(-c3ccc(F)cc3)c12 | . | -0.5
CC(C)Oc1ccc(-c2nc3c(C#N)c[nH]n3c2NC2CCCCC2)cc1 | -2.12 | 0.24
CCN1CCN(C(c2cccs2)C(C)NS(=O)(=O)c2ccc(Br)cc2)CC1 (stereo not drawn) | -1.82 | .
O=C(Nc1nnc(N2CCCCC2)s1)Nc1ccccc1F | -7.21 | 1.41
O=C(CSc1c2c(nc3ccccc13)CCCC2)N1CCCC1 | -10.6 | .
Cc1cc2c3c([nH]c2cc1S(=O)(=O)N1CC=C(c2ccccc2)CC1)CCCC3=O | . | 1.9
Cc1occc1-c1nnc2sc(-c3ccc(-c4cccc(Cl)c4)o3)nn12 | -0.12 | 1.72
O=C(CSc1nc2ccccc2nc1N1CCOCC1)N1CCOCC1 | 0.95 | 0.23
O=c1c2c(-c3ccccc3)csc2nc2n1CCC2 | -0.3 | 0.71
CCc1nn2c(=O)cc(COc3cc(C)cc(C)c3)nc2s1 | -2.32 | 0.31
C#CCSc1nnc2nc(C)cc(C)n12 | -0.86 | 1.25
O=c1[nH]nc(-c2ccc(F)cc2)cc1Cc1ccccc1 | -1.34 | .
CCn1c(NC(=O)Nc2ccc(C)cc2Cl)cc2sccc21 | 2.77 | -6.71
O=C(Cc1ccc(NC(=O)N2CCSc3ncccc32)cc1)NCc1ccc2c(c1)OCO2 | . | -0.47
O=C1CC(c2ccccc2Cl)Cc2nc(NCCc3ccccc3)ncc21 (stereo not drawn) | -2.4 | 1.04
CCOC(=O)c1cc(Nc2ccccc2)c2cc(Cl)ccc2n1 | -0.86 | -1.67
CC1CN(c2nc(Nc3ccccc3)c3cnn(C)c3n2)CC(C)O1 (stereo not drawn) | . | 1.58
CCCc1cc(N2CCN(CCO)CC2)n2c(nc3ccccc32)c1C#N | -0.23 | -0.49
O=S(=O)(NC1CCCCC1N1CCN(C2CCCCC2)CC1)c1ccc(Cl)cc1 (stereo not drawn) | -2.54 | 2.52
COc1ccccc1NC(=O)Nc1nnc(N2CCCC2)s1 | -2.33 | 0.03
CC1=C(C(=O)OCC2CCCO2)C(c2cccc(Cl)c2)C2=C(CC(C)(C)CC2=O)N1 (stereo not drawn) | -1.62 | -0.38
CC(C)(C#N)c1cc(Cn2cncn2)cc(C(C)(C)C#N)c1 | . | 0.63
COc1ccc(N2CCN(CCCNC(=O)NC3COc4ccc(OC)cc4C3)CC2)cc1 (stereo not drawn) | . | 0.51
COc1ccc(C2C3=C(CCCC3=O)Nc3nc(SCc4ccc(Cl)cc4)nn32)cc1OC (stereo not drawn) | -1.03 | -0.57
CCOc1cc(C2C(C(=O)OCCOc3ccccc3)=C(C)NC3=C2C(=O)CC(C)(C)C3)ccc1O (stereo not drawn) | -3.02 | -0.19
CCCc1cc(=O)n2nc(N3CCC(C(=O)Nc4ccc5c(c4)OCCO5)CC3)sc2n1 | -0.68 | 3.24
COc1ccc(/C=C/c2nc(NCCCN(C)C)c3ccccc3n2)cc1 | 0.63 | .
Cc1ccc(N2CC(c3nnc(Cc4ccc(F)cc4)o3)CC2=O)cc1 (stereo not drawn) | -0.2 | -0.79
O=C(NCC1CCCO1)C1CCN(c2nn3c(=O)c4c(nc3s2)CCCC4)CC1 (stereo not drawn) | . | 2.01
CCOCCOC(=O)C1=C(C)NC2=C(C(=O)CC(c3cccs3)C2)C1c1ccc(Cl)cc1 (stereo not drawn) | -1.23 | 0.71
Cc1ccc(S(=O)(=O)N(C)CCc2noc(-c3ccccc3Cl)n2)c2nsnc12 | . | 0.96
CCN(CC)c1nn2c(=O)c(C(=O)NCc3cc(Br)ccc3OC)cnc2s1 | . | 1.33
CC(=O)N1CCCc2cc(S(=O)(=O)NC(C(=O)NC3CCCCC3)C(C)C)ccc21 (stereo not drawn) | -0.63 | .
c1ccc(-c2nc3ccccc3o2)c(-c2nc3ccccc3o2)c1 | -0.93 | 0.04

The results go on:
SMILES | CDC25B CDK2 inh | HIV TAR-Tat
Cn1ccc2cc(S(=O)(=O)N3CCCN(C(=O)Nc4ccccc4Br)CC3)ccc21 | . | 0.12
CCOc1ccc(C2C3=C(CC(C)(C)CC3=O)Nc3nc(C)nn32)cc1 (stereo not drawn) | -1.08 | 0.44
Cc1cccc(CNc2nc(N3CCN(CCO)CC3)nc3c2cnn3C)c1 | . | 1.94
Cc1ccc(CSc2nc3c(c(=O)[nH]2)C(c2ccccc2OC(C)C)CC(=O)N3)cc1 (stereo not drawn) | 1.45 | 1.36
O=C1CC(c2nc3ccccc3n2CCOc2ccccc2)CN1Cc1ccccc1 (stereo not drawn) | 0.53 | 1.07
CCCc1nc2n(n1)C1(CCCCC1)[C@@H]1CCCC[C@@H]1N2C(C)=O | -0.82 | 0.89
Clc1ccc(-c2nc(NCc3ccco3)c3ccccc3n2)cc1 | -1.07 | 0.1
Cc1ccccc1OCc1nn2c(-c3cccc(Cl)c3)nnc2s1 | -0.56 | 1.73
O=C(C1c2ccccc2Oc2ccccc21)N1CCN=C1SCc1ccccc1 | -0.25 | .
CCN1C(=O)N(C)C2C1N(C)C(=O)N2CC (stereo not drawn) | 0.39 | 3.39
Brc1c(Br)c(Br)c2[nH]cnc2c1Br | -2.86 | .
COCC(C)NS(=O)(=O)c1cc2c3c(c1)CC(=O)N3CCC2 (stereo not drawn) | . | 1.9
COc1ccc(-c2cc3nccc(-c4cc(Cl)ccc4O)n3n2)cc1 | 6 | 1.23
c1ccc(-c2noc(-c3cc(-c4ccc5ccccc5c4)n[nH]3)n2)nc1 | . | -0.17
CCOC(=O)C1=C(C)NC2=C(C(=O)c3ccccc32)C1c1ccc(OC)cc1 (stereo not drawn) | 0.19 | 1.66
O=C(NCC1OCCc2ccccc21)C(=O)Nc1ccc(Br)cc1 (stereo not drawn) | -1.34 | 1.38
CCSc1nnc(NC(=O)c2cccc(C(=O)OC)n2)s1 | -1.07 | 1.62
O=C1C=CC(=O)N1c1ccc(Br)cc1 | -0.57 | .
O=C(Nc1cccc(F)c1)N1CCCC(O)C1 (stereo not drawn) | -1.85 | 0.2
C#CCOc1ccc(C#N)cc1 | -1.04 | .
O=C(O)CN(CC(=O)O)Cc1cc2c(-c3ccccc3C(=O)O)c3cc(CN(CC(=O)O)CC(=O)O)c(=O)cc-3oc2cc1O | . | -4.03
Cc1ccc(C)c(Nc2c3c(nc4ncnn24)CCC3)c1 | . | 0.97
Cc1cc(Nc2ccc(F)c(Cl)c2)n2nc(-c3ccco3)nc2n1 | . | 0.92
COc1ccc(C(=O)c2cc3cc([N+](=O)[O-])ccc3o2)cc1 | -1.38 | .
CCCN1CCN(CCCN2C(=O)c3cc4occc4n3CC2(C)C(=O)NC2CCCCC2)CC1 (stereo not drawn) | . | -1.23
CCCCN(C)C(=O)CSc1nnc(-c2cc3ccccc3n2C)o1 | -0.68 | 2.45
Cc1ccc(/C(O)=C2/C(=O)C(=O)N(CCCN3CCOCC3)C23C(=O)N(C)c2ccccc23)cc1F (stereo not drawn) | -1.58 | 0.77
CN1CCN(C(=O)c2cc(N3CCCCC3)ccc2N)CC1 | -1.41 | 0.11
COc1ccc(OC)c2[nH]c(=O)c(CCNS(=O)(=O)c3ccc(Br)cc3)cc12 | 0.09 | .
CCN1CCN(c2nnc(-n3cccc3CN3CCN(c4ccccn4)CC3)s2)CC1 | . | 2.04
Cc1cccc(Cn2nc(C)c3c(C)onc3c2=O)c1 | . | -0.05
Cc1nc2ccccn2c(=O)c1Cc1nnc(SCC(=O)Nc2cccc(F)c2)n1C | -1.08 | -0.3
O=C(O)c1ccc(S(=O)(=O)Nc2ccc3oc4c(c3c2)C(=O)CCC4)cc1 | -0.96 | 0.59
CCc1ccc(OC(=O)c2nc(S(C)(=O)=O)ncc2Cl)cc1 | -0.7 | -0.32
Nc1ccc(C(=O)OCCCc2nc3ccccc3[nH]2)cc1 | -1.33 | .
O=C1c2cccnc2C(Nc2ccccc2F)N1c1ccccc1 (stereo not drawn) | . | 1.57
CCn1c2ccccc2c2cc(C3C(C(=O)OCC4CCCO4)=C(C)NC4=C3C(=O)CCC4)ccc21 (stereo not drawn) | -1.23 | 2.62
CC1(C)CC(=O)C2=C(C1)Nc1nc(SCc3ccccc3F)[nH]c(=O)c1C2c1ccncc1 (stereo not drawn) | -1.16 | .
O=C(O)c1cc(NC2=NS(=O)(=O)c3ccccc32)ccc1O | -1.42 | 2.96
COc1ccc2c(c1)CC(NC(=O)NCCCN1CCCC1=O)CO2 (stereo not drawn) | . | 1.53
CCN1CCCC1CNC(=O)c1sc2nc(C)cc(C)c2c1-n1cccc1 (stereo not drawn) | -0.15 | -2.33
CC(=O)N1c2ccc(S(=O)(=O)N3CCN(c4nc5ccccc5n5cccc45)CC3)cc2CC1C (stereo not drawn) | -1.71 | 1.65
O=S1(=O)C[C@H](NCC2CCCO2)[C@@H](S(=O)(=O)c2ccc(F)cc2)C1 (stereo partly drawn) | -2.48 | -0.96
O=C(O)CCCCc1cc2c(s1)CCCC(=O)N2 | 0.25 | .
Cc1ccc(-n2nc3c(c2NC(=O)c2c(-c4ccccc4Cl)noc2C)CS(=O)(=O)C3)c(C)c1 | -0.43 | .
COc1nc(OCCNS(=O)(=O)c2ccccc2)nc(N(C)C)n1 | 0.49 | 1.63
Cc1sc2[nH]c(=O)n(-c3ccccc3)c(=O)c2c1C | 0.49 | .
CCCS(=O)(=O)NCCc1csc2nc(-c3cccs3)nn12 | . | 1.3
O=C(O)CC(=O)N1CCSc2ccccc21 | 0.97 | 1.37
O=C(CN1CCN(Cc2ccc(Cl)cc2)C1=O)NC1CCCC1 | -2.02 | 1.55
